High-throughput results from PubChem BioAssay.
HIV Env fusion – HIV envelope-mediated fusion inhibition. inhibition, % at 12.3 µM. hit rate 1.1% among 360,000. HeLa-JRFL Env/CEM21 cell fusion, luciferase;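 active = mean replicate inhibition score of at least 50 and every replicate individually at or above 50; inconclusive = only one of the two criteria met; inactive = mean below 50 and not all replicates reaching 50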;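 also: 0% = plate neutral controls and 100% = maraviroc near 300 nM; one replicate is shown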
The depositor's hits bear a star; ? = inconclusive; [ ] = remark or other dose. An excerpt (hit frequency here may not be typical).

> Cc1ccccc1-c1ccc2c(c1)[C@@H]1C[C@H](N(C)S(=O)(=O)c3ccc(Cl)cc3)[C@H]([C@H](C)O)CN1CC2
  HIV Env fusion: 35

> C[C@@H]1CN([C@H](C)CO)C(=O)c2cc(NC(=O)C3CCCCC3)ccc2O[C@@H](C)CCCCO[C@@H]1CN(C)C(=O)c1ccncc1
  HIV Env fusion: 9[16.7 µM]

> C=CCN1C[C@H](COC(=O)c2ccc(C)c(C)c2)Oc2cccc(F)c2S1(=O)=O
  HIV Env fusion: 19

> CCC(=O)N1C[C@@H](C)[C@H](OC)CN(C)C(=O)c2ccc(NS(C)(=O)=O)cc2OC[C@@H]1C
  HIV Env fusion: 2[16.7 µM]

> CO[C@H]1CN(C)C(=O)c2ccc(NS(C)(=O)=O)cc2OC[C@@H](C)N(Cc2ccccn2)C[C@H]1C
  HIV Env fusion: -5[16.7 µM]

> COCC(=O)N1C[C@@H](C)[C@H](OC)CN(C)C(=O)c2ccc(NC(=O)Nc3ccccc3)cc2OC[C@@H]1C
  HIV Env fusion: 21[16.7 µM]

> O=C(C[C@H]1CC[C@H](NC(=O)Cc2ccccn2)[C@@H](CO)O1)NCCc1ccncc1
  HIV Env fusion: -17[16.7 µM]

> CN(C)CCCNC(=O)[C@H]1[C@H](CO)[C@H]2Cn3c(ccc(C4=CCCC4)c3=O)[C@@H]1N2Cc1cocn1
  HIV Env fusion: -11[16.7 µM]

> C[C@@H]1CN([C@@H](C)CO)C(=O)c2cc(-c3ccc(C#N)cc3)cnc2O[C@H]1CN(C)CC1CCCCC1
  HIV Env fusion: 14[16.7 µM]

> CN1C(=O)c2cc(NC(=O)c3cccs3)ccc2OC[C@@H]2O[C@H](CC(=O)N3CCCCC3)CC[C@@H]21
  HIV Env fusion: 14[16.7 µM]

> C[C@H](CO)N1C[C@H](C)[C@@H](CN(C)Cc2cncnc2)Oc2cc(C#CC3CCCC3)ccc2S1(=O)=O
  HIV Env fusion: -3[16.7 µM]

> COCCN1Cc2cc(C(=O)OC)c3c(c2C1=O)c1cc(OC)ccc1n3C(=O)c1ccccc1
  HIV Env fusion: 12

> O=C(NC1Cc2ccccc2C1)[C@@H]1N[C@@H]2c3cccc(=O)n3C[C@@H]2[C@H]1CO
  HIV Env fusion: 4[16.7 µM]

> C[C@@H]1CCCCO[C@@H](CN(C)C(=O)c2ccccc2)[C@H](C)CN([C@@H](C)CO)C(=O)c2cc(NC(=O)c3ccccc3)ccc2O1
  HIV Env fusion: -3[16.7 µM]

> CC(C)NC(=O)Nc1cccc2c1O[C@H](CN(C)S(=O)(=O)c1cccs1)[C@H](C)CN([C@H](C)CO)C2=O
  HIV Env fusion: 15[16.7 µM]

> CNC[C@@H]1Oc2ccc(NS(=O)(=O)c3ccccc3)cc2CC(=O)N([C@@H](C)CO)C[C@@H]1C
  HIV Env fusion: -3[16.7 µM]

> CCCCCN(C(=O)CCc1cn(CCCCC)c2ccccc12)c1ccc(Oc2cccnc2)cc1
  HIV Env fusion: 58*

> CO[C@@H]1CC[C@H]2CCN(C)C(=O)C[C@H](c3ccccc3)CN(C)C(=O)c3cc(C#N)ccc3OC[C@H]1O2
  HIV Env fusion: -12[16.7 µM]

> O=C(NCc1ccccc1)[C@@H]1CCCN1C(=O)[C@H]1CCCN1C(=O)c1cccs1
  HIV Env fusion: -2

> COC(=O)[C@]12C[C@H](CC(=O)N3CCCCC3)C(=O)N(CCC3=CCCCC3)C1=C[C@H](C(C)(C)C)O[C@@H]2C
  HIV Env fusion: 27

> CC(C)NC(=O)N(C)C[C@@H]1OCCCC[C@H](C)Oc2ccc(NC(=O)c3ccccc3)cc2C(=O)N([C@H](C)CO)C[C@H]1C
  HIV Env fusion: 18[16.7 µM]

> C[C@@H](NC(=O)C[C@H]1C[C@@H]2c3cc(NC(=O)C4CCOCC4)ccc3O[C@@H]2[C@H](CO)O1)c1ccccc1
  HIV Env fusion: 7[16.7 µM]

> CNC[C@@H]1Oc2ccc(NC(=O)Cc3ccccc3)cc2CC(=O)N([C@@H](C)CO)C[C@@H]1C
  HIV Env fusion: -10[16.7 µM]

> C[C@H](CO)N1C[C@H](C)[C@H](CN(C)C(=O)c2ccncc2)OCCCC[C@H](C)Oc2ccc(NC(=O)c3ccccc3)cc2C1=O
  HIV Env fusion: -4[16.7 µM]

> CN1C(=O)c2cc(NC(=O)c3ccc(F)c(F)c3)ccc2OC[C@H]2O[C@H](CC(=O)N3CCOCC3)CC[C@@H]21
  HIV Env fusion: -5[16.7 µM]

> COc1ccccc1CNC(=O)C[C@@H]1C[C@@H]2c3cc(NC(=O)C4CCOCC4)ccc3O[C@@H]2[C@H](CO)O1
  HIV Env fusion: -1[16.7 µM]

> O=C(C[C@@H]1CC[C@@H]2[C@H](COC[C@H](O)CN2C(=O)c2ccccc2)O1)N1CCOCC1
  HIV Env fusion: -4[16.7 µM]

> CN(C)C(=O)[C@H]1[C@H](CO)[C@H]2Cn3c(ccc(C4=CCCC4)c3=O)[C@@H]1N2Cc1ccccn1
  HIV Env fusion: -28[16.7 µM]

> C[C@@H]1CN([C@H](C)CO)C(=O)c2cccc(N(C)C)c2O[C@H]1CN(C)C(=O)NC1CCCCC1
  HIV Env fusion: -5[16.7 µM]

> OC(c1ccccc1)(c1ccccc1)C1CCN(CCCOc2ccc(-c3ccc(F)cc3F)cc2)CC1
  HIV Env fusion: 63*

> O=C(N[C@@H]1C=C[C@H](CC(=O)N2CCCCC2)O[C@@H]1CO)c1ccc2c(c1)OCO2
  HIV Env fusion: 9[16.7 µM]

> C[C@@H]1CN([C@H](C)CO)C(=O)c2c(c3ccccc3n2C)-c2ccccc2CO[C@H]1CN(C)C(=O)c1ccncc1
  HIV Env fusion: 1[16.7 µM]

> CC(C)NC(=O)Nc1ccc2c(c1)C(=O)N([C@@H](C)CO)C[C@@H](C)[C@H](CN(C)C(=O)Nc1cccc3ccccc13)O2
  HIV Env fusion: -3[16.7 µM]

> CO[C@H]1CN(C)C(=O)c2ccc(NC(=O)C3CC3)cc2OC[C@H](C)N(Cc2cc(F)ccc2F)C[C@@H]1C
  HIV Env fusion: 81*[16.7 µM]

> COc1ccc(CN(C)C[C@H]2Oc3ccc(NS(=O)(=O)c4cccs4)cc3CC(=O)N([C@@H](C)CO)C[C@@H]2C)cc1
  HIV Env fusion: -10[16.7 µM]

> COc1ccc(C(=O)Nc2ccc3c(c2)C(=O)N(C)C[C@H](OC)[C@@H](C)CN(C)[C@@H](C)CO3)cc1
  HIV Env fusion: -13[16.7 µM]

> Cc1cc(Oc2cccnc2)ccc1NC(=O)CCc1c[nH]c2ccccc12
  HIV Env fusion: -6

> O=C(C[C@@H]1C[C@@H]2c3cc(NC(=O)Cc4ccncc4)ccc3O[C@@H]2[C@H](CO)O1)NCCN1CCCCC1
  HIV Env fusion: -11[16.7 µM]

> C[C@@H]1CCCCO[C@@H](CN(C)CC2CC2)[C@@H](C)CN([C@H](C)CO)C(=O)c2cc(NC(=O)NC3CCCCC3)ccc2O1
  HIV Env fusion: 1[16.7 µM]

> COc1cccc(NC(=O)N(C)C[C@@H]2OCc3ccccc3-c3ccccc3C(=O)N([C@H](C)CO)C[C@@H]2C)c1
  HIV Env fusion: -17[16.7 µM]

(listing goes on)
canonical_smiles	HIV Env fusion
Cc1ccc(-c2ccccc2[C@@H]2[C@H](C#N)N(S(C)(=O)=O)[C@H]2CO)cc1	-26[16.7 µM]
O=C(C[C@H]1CC[C@@H]2[C@H](COC[C@H](O)CN2Cc2cccc(C(F)(F)F)c2)O1)NCc1ccc(Cl)cc1	19[16.7 µM]
CO[C@@H]1CN(C)C(=O)c2cc(NC(=O)C3CCOCC3)ccc2OC[C@H](C)N(Cc2cccnc2)C[C@H]1C	8[16.7 µM]
C[C@H]1CN([C@@H](C)CO)C(=O)c2cc(C#CCc3ccccc3)cnc2O[C@H]1CN(C)Cc1ccc(C(=O)O)cc1	-4[16.7 µM]
COc1ccccc1CNC(=O)C[C@H]1C[C@H]2c3cc(NC(=O)C4CCOCC4)ccc3O[C@H]2[C@H](CO)O1	2[16.7 µM]
C[C@H](NC(=O)C[C@H]1C[C@@H]2c3cc(NC(=O)Nc4ccc(C(F)(F)F)cc4)ccc3O[C@@H]2[C@H](CO)O1)c1ccccc1	5[16.7 µM]
CCCCNC(=O)C[C@H]1C[C@@]2(C(=O)OC)C(=C[C@H](COCc3ccccc3)O[C@@H]2C)N(Cc2ccc3c(c2)OCO3)C1=O	?
O=C(Cc1c[nH]c2ccccc12)Nc1ccc(Nc2cccnc2)c(-c2ccc(OC(F)(F)F)cc2)c1	17
CO[C@H]1CC[C@H]2CCN(C)C(=O)[C@@H](C)[C@H](OC)CN(C)C(=O)c3cc(C#N)ccc3OC[C@@H]1O2	9[16.7 µM]
C[C@H](CO)N1C[C@H](C)[C@@H](CN(C)Cc2ccc(C(F)(F)F)cc2)Oc2ccc(NC(=O)Nc3ccc(F)cc3)cc2CC1=O	28[16.7 µM]
COc1ccc2c3c([nH]c2c1)[C@@H](CO)N(Cc1ccc2c(c1)OCO2)CC31CN(C(=O)Nc2c(C)noc2C)C1	-23[16.7 µM]
CN1CCN(C(=O)c2cc3c(c(-c4cccc(-c5ccccc5F)c4)n2)[C@@H](CCO)N([S@](=O)C(C)(C)C)C3)CC1	-19[16.7 µM]
O=C(NCc1ccc(F)cc1)[C@@H]1[C@@H](CO)[C@@H]2Cn3c(ccc(C4=CCCCC4)c3=O)[C@H]1N2	4[16.7 µM]
COc1cccc(CN2CC3(CN(S(C)(=O)=O)C3)c3c(n(C)c4cc(OC)ccc34)[C@@H]2CO)c1	0[16.7 µM]
O=C(C(=O)N1CCC(CNS(=O)(=O)c2cccc3ccccc23)CC1)c1cccs1	-14
CC(C)NC(=O)N(C)C[C@@H]1OCCCC[C@@H](C)Oc2ccc(NC(=O)c3ccccc3)cc2C(=O)N([C@H](C)CO)C[C@H]1C	-107[16.7 µM]
CO[C@@H]1CN(C)C(=O)c2ccc(NS(C)(=O)=O)cc2OC[C@@H](C)N(Cc2nccs2)C[C@H]1C	-12[16.7 µM]
C[C@H]1CCCCO[C@@H](CN(C)Cc2ccc(C(=O)O)cc2)[C@@H](C)CN([C@@H](C)CO)C(=O)c2cc(N(C)C)ccc2O1	11[16.7 µM]
CNC[C@@H]1OCCCC[C@H](C)Oc2ccc(NS(=O)(=O)c3cccs3)cc2C(=O)N([C@@H](C)CO)C[C@H]1C	-8[16.7 µM]
O=S(=O)(c1cccs1)N1CCCc2nc(-c3ccccc3)ccc21	-7
C[C@H](CO)N1C[C@H](C)[C@H](CN(C)Cc2ccncc2)Oc2ccc(NC(=O)CCC(F)(F)F)cc2CC1=O	-3[16.7 µM]
O=C(NCC1CC1)[C@H]1[C@H](CO)[C@H]2Cn3c(ccc(/C=C/c4ccccc4)c3=O)[C@@H]1N2C(=O)C1CCC1	1[16.7 µM]
COC(=O)[C@]12C[C@H](CC(=O)N3CCN(C(=O)C4CC4)CC3)C(=O)N(Cc3ccccc3)C1=C[C@H](C1CCCC1)O[C@@H]2C	10
COc1cc(CO)cc(I)c1O[C@H]1C=C(C(=O)NCCO)C[C@@H](N(CC2CCCCC2)C(=O)c2cc3ccccc3oc2=O)[C@@H]1O	-23[16.7 µM]

Overlap with the part before: six entries, followed by the next part.
canonical_smiles	HIV Env fusion
CNC[C@@H]1OCCCC[C@H](C)Oc2ccc(NS(=O)(=O)c3cccs3)cc2C(=O)N([C@@H](C)CO)C[C@H]1C	-8[16.7 µM]
O=S(=O)(c1cccs1)N1CCCc2nc(-c3ccccc3)ccc21	-7
C[C@H](CO)N1C[C@H](C)[C@H](CN(C)Cc2ccncc2)Oc2ccc(NC(=O)CCC(F)(F)F)cc2CC1=O	-3[16.7 µM]
O=C(NCC1CC1)[C@H]1[C@H](CO)[C@H]2Cn3c(ccc(/C=C/c4ccccc4)c3=O)[C@@H]1N2C(=O)C1CCC1	1[16.7 µM]
COC(=O)[C@]12C[C@H](CC(=O)N3CCN(C(=O)C4CC4)CC3)C(=O)N(Cc3ccccc3)C1=C[C@H](C1CCCC1)O[C@@H]2C	10
COc1cc(CO)cc(I)c1O[C@H]1C=C(C(=O)NCCO)C[C@@H](N(CC2CCCCC2)C(=O)c2cc3ccccc3oc2=O)[C@@H]1O	-23[16.7 µM]
COCc1cc(N2CCNC[C@@H]2C)ccc1N1CCN(Cc2ccccc2)[C@@H](C)C1	-27
O=C(C[C@H]1CC[C@@H]2[C@H](COC[C@H](O)CN2C(=O)c2ccc(F)cc2)O1)Nc1ccc(-c2ccccc2)cc1	-11[16.7 µM]
CN1C(=O)c2cc(NC(=O)c3ccc(F)c(F)c3)ccc2OC[C@H]2O[C@@H](CC(=O)N3CCOCC3)CC[C@@H]21	19[16.7 µM]
CCCCCCCN(c1ccccc1)C1C[C@H]2CCCC(=O)N3CC[C@@H](C1)[C@@H]23 (stereo partly specified)	9
CC(C)c1[nH]nc2c1C(c1cccc(C(F)(F)F)c1)NC2=O (stereo unspecified)	-16
COC(=O)[C@]12C[C@H](CC(=O)NCCCN3CCCC3=O)C(=O)N(Cc3ccccc3)C1=C[C@H](C(C)C)O[C@@H]2C1CC1	?
COCC(=O)Nc1ccc2c(c1)[C@H]1C[C@@H](CC(=O)N[C@H](C)c3ccccc3)O[C@@H](CO)[C@H]1O2	18[16.7 µM]
CO[C@@H]1CN(C)C(=O)c2ccc(NC(=O)c3cnccn3)cc2OC[C@@H](C)NC[C@H]1C	0[16.7 µM]
CN(C)C(=O)c1cccc(-c2cccc(-c3nc(C(=O)NCc4ccccc4)cc4c3[C@H](CCO)N([S@@](=O)C(C)(C)C)C4)c2)c1	13[16.7 µM]
O=C(NN=Cc1ccccc1O)C(=O)Nc1ccc(F)cc1	-27
COc1cccc(NC(=O)Nc2ccc3c(c2)C(=O)N(C)C[C@H](OC)[C@H](C)CN(CC2CC2)[C@H](C)CO3)c1	-1[16.7 µM]
CC(C)(C)c1ccc(S(=O)(=O)NCC2CCN(C(=O)C(=O)c3cccs3)CC2)cc1	1
C[C@H](CO)N1C[C@H](C)[C@H](CN(C)Cc2ccc3c(c2)OCO3)OCc2ccccc2-c2ccccc2C1=O	52[16.7 µM]
Nc1ccn([C@@H]2O[C@H](C(=O)N[C@H](Cc3ccccc3)C(=O)N3CCN(C(=O)N4CCOCC4)CC3)[C@@H](O)[C@H]2O)c(=O)n1	-11
CN(C)CCCNC(=O)C[C@@H]1CC[C@@H]2[C@@H](COc3ccc(NS(C)(=O)=O)cc3C(=O)N2C)O1	1[16.7 µM]
